Vaccinia stage: blocks a specific stage of Vaccinia orthopoxvirus infection | Vaccinia-infected cells, mCherry/Venus stage reporter fluorescence; active compounds read low; some inactives read as strong as hits | activity change (mCherry), % (concentration not given with the values) | hit rate 0.01% among 89,000 | AID 1053133;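 active means mCherry past -33% and 40 or more points under the early reporter, replicates agreeing; inconclusive means past -33% without that gap or agreement; tested in A549 cells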;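 further: scaled between vehicle wells and reference inhibitor wells; 23 nL library stock went into each well; one replicate is shown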
Vaccinia stage Venus: recorded beside Vaccinia stage, whose call it bears; activity change (Venus), %; measured here: Venus reporter, other viral stage;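 negative = less Venus signal; first of two replicates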
Numbers without * were called inactive; ? = inconclusive; nt = no result given; & = joins results of further samples. An excerpt, so the mix of outcomes need not match the whole.

Start of the data: the first 3 compounds, ahead of the listing:
| Structure | Vaccinia stage | Vaccinia stage Venus |
| --- | --- | --- |
| C[C@@H]1CN([C@H](C)CO)S(=O)(=O)c2ccc(-c3ccc(C#N)cc3)cc2O[C@H]1CN(C)C(=O)C1CC1 | 3.7 | 2.3 |
| Cc1ccccc1S(=O)(=O)NCC[C@H]1CC[C@H](NC(=O)C2CCCCC2)[C@H](CO)O1 | -6.3 | -2.6 |
| C[C@@H]1CN([C@H](C)CO)C(=O)c2cc(C#CC3CC3)cnc2O[C@@H]1CN(C)C | 2.1 | 0.6 |

Main list, from the start:
| Structure | Vaccinia stage | Vaccinia stage Venus |
| --- | --- | --- |
| C[C@@H]1CN([C@H](C)CO)S(=O)(=O)c2ccc(-c3ccc(C#N)cc3)cc2O[C@H]1CN(C)C(=O)C1CC1 | 3.7 | 2.3 |
| Cc1ccccc1S(=O)(=O)NCC[C@H]1CC[C@H](NC(=O)C2CCCCC2)[C@H](CO)O1 | -6.3 | -2.6 |
| C[C@@H]1CN([C@H](C)CO)C(=O)c2cc(C#CC3CC3)cnc2O[C@@H]1CN(C)C | 2.1 | 0.6 |
| COc1cccc(NC(=O)N2CC3(C2)[C@@H](c2ccccc2)[C@@H](CO)N3C(=O)C2CC2)c1 | 3.8 | 5.4 |
| C[C@@H]1CN([C@@H](C)CO)S(=O)(=O)c2ccc(-c3cncnc3)cc2O[C@@H]1CN(C)C(=O)C1CCCCC1 | -6.2 | 2.5 |
| Cc1ccccc1S(=O)(=O)N1[C@H](C#N)[C@@H](c2ccc(C#CC3CCCCC3)cc2)[C@@H]1CO | -31.9 | -34.5 |
| C[C@@H]1CN([C@H](C)CO)C(=O)c2cccc(NC(=O)Nc3ccc(C(F)(F)F)cc3)c2O[C@H]1CN(C)Cc1ccc(-c2ccccc2)cc1 | 0.7 | 0.9 |
| Cc1cccc(-c2ccc(C3[C@@H]4CN(Cc5ccccc5F)C[C@H]3N4)cc2)c1 (stereo partly drawn) | -2.9 | 10.4 |
| COC(=O)C[C@@H]1C[C@H]2c3cc(NC(=O)c4cccnc4)ccc3O[C@H]2[C@@H](CO)O1 | 7.8 | 0.5 |
| COc1ccc(-c2cn(CC[C@@H]3CC[C@H](NC(=O)CCN4CCCCC4)[C@@H](CO)O3)nn2)cc1 | 5.0 | 16.9 |
| CCC(=O)N1CC(=O)N2[C@@H](CO)[C@H](c3ccc(C#CCc4ccccc4)cc3)[C@@H]2C1 | 13.3 | 8.2 |
| COc1ccc(NC(=O)Nc2ccc3c(c2)C(=O)N([C@@H](C)CO)C[C@@H](C)[C@@H](CN(C)C(=O)Nc2c(C)noc2C)O3)cc1 | 12.6 | 7.3 |
| C[C@H](CO)N1C[C@H](C)[C@H](CN(C)Cc2ccccc2)Oc2ccc(N(C)C)cc2CC1=O | -1.8 | -5.1 |
| O=C(Nc1ccccc1F)N[C@@H]1CC[C@H](CCNC(=O)C2CC2)O[C@H]1CO | 2.3 | 2.2 |
| C[C@@H]1CN([C@H](C)CO)S(=O)(=O)c2ccc(-c3ccccc3)cc2O[C@H]1CN(C)S(=O)(=O)c1ccccc1F | ? | nt |
| C[C@@H]1CN([C@@H](C)CO)C(=O)c2cccc(NS(=O)(=O)c3ccccc3)c2O[C@H]1CN(C)Cc1ccc(-c2ccccc2)cc1 | -26.0 | -31.4 |
| COc1cccc(NC(=O)N(C)C[C@@H]2Oc3cc(-c4cccc(C(=O)N(C)C)c4)ccc3S(=O)(=O)N([C@@H](C)CO)C[C@@H]2C)c1 | 6.4 | 8.5 |
| COc1ccccc1NC(=O)N1C[C@@H]2[C@H](c3ccccc31)[C@H](CO)N2CC1CCCC1 | -15.3 | -7.0 |
| C[C@@H]1CCCCO[C@H](CN(C)S(=O)(=O)c2ccccc2)[C@@H](C)CN([C@H](C)CO)C(=O)c2cc(NC(=O)CCCCCC(=O)Nc3ccccc3N)ccc2O1 | -10.5 | 0.3 |
| COCC(=O)Nc1ccc2c(c1)C(=O)N(C)[C@@H]1CC[C@H](CC(=O)NCC3CCCCC3)O[C@H]1CO2 | -5.3 | 0.6 |
| CCCNC(=O)[C@@H]1[C@@H](CO)[C@@H]2Cn3c(ccc(-c4ccccc4F)c3=O)[C@@H]2N1CC1CC1 | -1.2 | 8.5 |
| C[C@@H]1CN([C@@H](C)CO)C(=O)c2ccccc2-c2ccccc2CO[C@@H]1CN(C)Cc1ccc(C(=O)O)cc1 | 39.5 | 33.1 |
| C[C@@H]1CN([C@@H](C)CO)C(=O)Cc2cc(N(C)C)ccc2O[C@H]1CN(C)CC1CCCCC1 | -7.9 | -0.6 |
| C[C@@H]1CN([C@H](C)CO)C(=O)Cc2cc(NC(=O)C3CCCCC3)ccc2O[C@H]1CN(C)S(=O)(=O)c1ccc(F)cc1 | 8.5 | 0.2 |
| C[C@H](CO)N1C[C@H](C)[C@@H](CN(C)C(=O)c2ccc(F)cc2)OCc2ccccc2-c2ccccc2C1=O | 30.5 | 5.1 |
| Cc1noc(C)c1S(=O)(=O)N(C)C[C@H]1OCCCC[C@H](C)Oc2ccc(NC(=O)c3ccccc3)cc2C(=O)N([C@@H](C)CO)C[C@H]1C | -10.3 | -2.9 |
| CO[C@H]1CN(C)C(=O)c2ccc(NC(=O)C3CCOCC3)cc2OC[C@H](C)N(C(C)=O)C[C@H]1C | 9.6 | 7.6 |
| CO[C@H]1CN(C)C(=O)c2cc(NC(=O)c3ccc(-c4ccccc4)cc3)ccc2OC[C@@H](C)NC[C@H]1C | ? | nt |
| C[C@H](CO)N1C[C@H](C)[C@H](CN(C)C(=O)Nc2ccc3c(c2)OCO3)Oc2ccc(NS(=O)(=O)c3cccs3)cc2CC1=O | -5.8 | 8.0 |
| C[C@@H]1CCCCO[C@@H](CN(C)Cc2ccc(Cl)c(Cl)c2)[C@@H](C)CN([C@H](C)CO)C(=O)c2cc(NS(=O)(=O)c3cn(C)cn3)ccc2O1 | -7.3 | -2.5 |
| C[C@H]1CN([C@@H](C)CO)C(=O)c2cc(NC(=O)CCN3CCOCC3)ccc2O[C@H]1CN(C)Cc1ccc(Cl)c(Cl)c1 | -4.3 | -7.9 |
| COCc1cn(CC[C@H]2CC[C@@H](NC(=O)Nc3c(C)noc3C)[C@H](CO)O2)nn1 | 13.5 | 14.8 |
| C[C@@H]1CN([C@H](C)CO)S(=O)(=O)c2ccc(C#C[C@@H](C)O)cc2O[C@@H]1CN(C)Cc1cncnc1 | 7.4 | 4.3 |
| O=C(c1ccncc1)N1CC(=O)N2[C@@H](CO)[C@H](c3ccc(-c4ccccc4)cc3)[C@@H]2C1 | 15.5 | 18.3 |
| CC=Cc1ccc2n(c1=O)C[C@@H]1[C@@H](CO)[C@H](C(=O)NCC3CC3)N(Cc3cccnc3)[C@H]21 (mixture of isomers) | -1.9 | 0.8 |
| O=C(NCC[C@@H]1CC[C@@H](NC(=O)C2CCCCC2)[C@@H](CO)O1)c1cc(Cl)cc(Cl)c1 | -4.9 | -4.9 |
| C/C=C/c1ccc(C2[C@H]3CNC[C@@H]2N3S(=O)(=O)c2cccc(OC)c2)cc1 (stereo partly drawn) | -0.7&6.3 | 1.8&7.4 |
| C[C@@H]1CN([C@H](C)CO)C(=O)c2cc(NC(=O)C3CC3)ccc2O[C@@H]1CN(C)S(=O)(=O)c1cn(C)cn1 | 24.1 | 13.2 |
| CN(C)C(=O)c1ccc(-c2ccc(C3[C@@H]4CN(C(=O)Nc5ccccc5)C[C@H]3N4)cc2)cc1 (stereo partly drawn) | -31.1 | -28.9 |
| C[C@H](CO)N1C[C@H](C)[C@H](CN(C)S(=O)(=O)c2ccc(F)cc2)Oc2ccc(NC(=O)c3ccncc3)cc2C1=O | 8.1 | -1.5 |
| Cc1cccc(S(=O)(=O)N2C[C@@H](O)COC[C@@H]3O[C@@H](CC(=O)Nc4ccccc4)CC[C@H]32)c1 | -6.0 | -1.4 |
| O=C(C[C@H]1CC[C@@H](NC(=O)CN2CCOCC2)[C@H](CO)O1)NCCc1ccncc1 | 6.8 | 16.7 |
| O=C(CCN1CCCCC1)N[C@@H]1CC[C@@H](CCn2cc(-c3ccccc3)nn2)O[C@H]1CO | 3.9 | 12.8 |
| C[C@H](CO)N1C[C@H](C)[C@@H](CN(C)S(=O)(=O)c2cccs2)Oc2ccc(NS(=O)(=O)c3ccccc3)cc2C1=O | 12.9 | 19.3 |
| O=C(Nc1cccc(F)c1)N1CCCCN2[C@H](CO)[C@H](c3ccc(-c4ccncc4)cc3)[C@@H]2C1 | 0.0 | -9.0 |
| CCCC#Cc1ccc([C@H]2[C@@H](CO)N(C(C)=O)[C@@H]2CNC(=O)C2CCCC2)cc1 | -2.6 | -5.4 |
| O=C(N[C@@H]1CC[C@@H](CCNS(=O)(=O)c2ccccc2Cl)O[C@H]1CO)c1ccccc1 | -2.4 | -1.1 |
| CC=Cc1ccc2n(c1=O)C[C@H]1[C@H](CO)[C@@H](C(=O)NCc3ccc4c(c3)OCO4)[C@@H]2N1C(=O)COC (mixture of isomers) | 4.6 | 7.3 |
| CCCN1[C@H](C(=O)NCC(F)(F)F)[C@@H](CO)[C@@H]2Cn3c(ccc(-c4ccccc4)c3=O)[C@@H]21 | -6.0 | -10.1 |
| C[C@@H]1CN([C@@H](C)CO)C(=O)c2c(c3ccccc3n2C)-c2ccccc2CO[C@@H]1CN(C)Cc1ccc(C(=O)O)cc1 | 14.6 | 19.0 |
| COCC(=O)N1CC[C@@H]2[C@@H](CO)N(C)c3ccc(-c4ccccc4)cc3[C@@H]21 | -5.4 | -7.7 |
| COc1ccc(-c2ccccc2[C@@H]2[C@@H](CO)N(C(=O)NC3CCCC3)[C@H]2C#N)cc1 | -3.9 | 7.2 |
| C[C@@H]1CN([C@H](C)CO)C(=O)c2cc(C#CC(C)(C)O)cnc2O[C@H]1CN(C)C(=O)C1CCC1 | 19.1 | 15.7 |
| C#Cc1ccc([C@H]2C=C(C(=O)NC3CC3)O[C@@H](OCc3ccc(CO)cc3)C2)cc1 | 1.0 | 13.4 |
| O=C(NCC1CC1)[C@@H]1[C@@H](CO)[C@@H]2Cn3c(ccc(C4=CCCC4)c3=O)[C@H]1N2C(=O)C1CC1 | 5.4 | -0.5 |
| CO[C@H]1CN(C)C(=O)c2ccc(NS(=O)(=O)c3ccccc3)cc2OC[C@H](C)N(C)C[C@@H]1C | -5.8 | -5.5 |
| CN(C)C(=O)C[C@@H]1CC[C@H]2[C@@H](COc3ccc(NC(=O)c4ccc(F)cc4)cc3C(=O)N2C)O1 | 14.3 | 7.8 |
| C/C=C/c1ccc2c(c1)O[C@H](CN(C)Cc1cccc(F)c1)[C@H](C)CN([C@H](C)CO)S2(=O)=O | ? | nt |
| Cc1ccc(S(=O)(=O)Nc2cccc3c2O[C@H](CN(C)C(=O)Nc2cccc4ccccc24)[C@@H](C)CN([C@@H](C)CO)C3=O)cc1 | 7.1 | 6.3 |
| C[C@H]1CN([C@@H](C)CO)S(=O)(=O)c2ccc(C#Cc3cccnc3)cc2O[C@@H]1CN(C)C(=O)CN(C)C | 2.2 | -3.8 |

(list continues)
The line under a structure holds: Vaccinia stage	Vaccinia stage Venus
COc1ccc2c3c(n(C)c2c1)[C@H](CO)N(Cc1cccc(Cl)c1)CC31CCN(C(C)=O)CC1
  -14.1	-10.3
CC(C)NC(=O)N(C)C[C@H]1Oc2c(NC(=O)c3cnccn3)cccc2C(=O)N([C@H](C)CO)C[C@H]1C
  1.0	-9.1
COc1ccccc1CNC(=O)C[C@H]1CC[C@@H]2[C@H](COc3ccc(NS(=O)(=O)c4ccc(C)cc4)cc3C(=O)N2C)O1
  -15.5	-6.2
C[C@@H]1CN([C@H](C)CO)S(=O)(=O)c2ccc(-c3ccc(C(=O)N(C)C)cc3)cc2O[C@@H]1CN(C)C(=O)C1CCOCC1
  12.9	5.0
CCCC#Cc1ccc2c(c1)O[C@@H](CN(C)C(=O)c1ccccc1F)[C@@H](C)CN([C@H](C)CO)S2(=O)=O
  -22.2	-25.2
Cc1noc(C)c1NC(=O)Nc1ccc2c(c1)CC(=O)N([C@@H](C)CO)C[C@H](C)[C@@H](CN(C)C(=O)Nc1c(C)noc1C)O2
  27.5	28.1
C[C@@H]1CN([C@H](C)CO)C(=O)c2cccc(NC(=O)Nc3ccc(C(F)(F)F)cc3)c2O[C@@H]1CN(C)C(=O)Nc1ccc(F)cc1
  ?	nt
C[C@@H]1CN([C@@H](C)CO)S(=O)(=O)c2ccc(C#C[C@@H](C)O)cc2O[C@H]1CN(C)Cc1ccccn1
  19.0	10.5
C[C@@H]1CN([C@H](C)CO)C(=O)c2cc(-c3ccccc3)cnc2O[C@@H]1CN(C)C(=O)C1CCCCC1
  -8.2	-15.4
Cc1ccc(S(=O)(=O)N(C)C[C@@H]2Oc3ccc(NC(=O)NC4CCCCC4)cc3C(=O)N([C@@H](C)CO)C[C@H]2C)cc1
  -34.3	-28.2
CC(C)NC(=O)Nc1ccc2c(c1)C(=O)N([C@@H](C)CO)C[C@H](C)[C@H](CN(C)S(C)(=O)=O)O2
  12.5	8.1
COc1ccc(S(=O)(=O)N(C)C[C@@H]2Oc3ccc(NS(=O)(=O)c4ccccc4)cc3CC(=O)N([C@@H](C)CO)C[C@@H]2C)cc1
  25.8	14.8
O=C(c1ccc(F)cc1)N1CC(=O)N2[C@H](CO)[C@@H](c3ccc(C#Cc4ccc(F)cc4)cc3)[C@H]2C1
  -29.2	-19.8
O=C(CN1CCOCC1)N1CC(=O)N2[C@H](CO)[C@@H](c3ccc(-c4cccc(F)c4)cc3)[C@@H]2C1
  0.3	4.4
C[C@@H]1CN([C@@H](C)CO)C(=O)c2cc(NC(=O)CCCCCC(=O)Nc3ccccc3N)ccc2O[C@@H]1CN(C)C(=O)NC1CCCCC1
  11.0	5.5
O=C(NCc1ccc(F)cc1)[C@H]1[C@H](CO)[C@H]2Cn3c(ccc(C4=CCCCC4)c3=O)[C@@H]1N2
  -8.6	-8.7
C[C@@H]1CN([C@@H](C)CO)C(=O)Cc2cc(NC(=O)Cc3ccccc3)ccc2O[C@@H]1CN(C)Cc1ccc(C(=O)O)cc1
  8.5	15.3
C[C@H](CO)N1C[C@H](C)[C@H](CN(C)Cc2ccc3c(c2)OCO3)Oc2ccc(NC(=O)CCCCCC(=O)Nc3ccccc3N)cc2C1=O
  -4.9	-1.2
